# Source: PubChem
# Menin MLL FP FL = qHTS Assay for Inhibitors Targeting the Menin-MLL Interaction in MLL Related Leukemias: Competition With Fluorescein Labeled MLL-derived Peptide. Fluorescence polarization, fluorescein-MLL peptide displacement from menin. FP activity change, % at 61.4 µM. 290,000 tested, under 10 active. AID 1766, 2009; inconclusive = falling polarisation curve, or a change in total fluorescence; inactive = total fluorescence flat and polarisation flat or rising; no compound was filed as active; the % refers to the polarisation; negative = inhibition;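 note: % of control where 0% means no effect; inhibitors lower the polarisation; unlabelled MLL peptide was the positive control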
# PINK1 modulator = A Quantitative High throughput Screen to Identify Chemical Modulators of PINK1 Expression; PINK1 immunofluorescence, high-content cytometry, 24 h; Potency, µM (highest dose often 76.6 µM), for the others: at the top dose activation (PINK1 increase), most hits filed as activators; 410,000 compounds, 0.2% hits; AID 624263, 2012; active = well fitted activation curve with a large enough effect; inconclusive = small, poorly fitted or top-dose-only effect; inactive = flat fitted curve, though single readings scatter; cell line not stated here;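 note: potency is the fitted concentration of half-maximal effect; % of control where 0% means no effect; nearly all actives have a fitted effect of over 65% in size; a mitochondrial uncoupler was the plate control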
#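 Fluorescence from anti-PINK1 antibody, together with nuclear and cell stains, was scanned on a laser-scanning cytometer. Before staining, stable-line cells were incubated 24 hours with compounds at 5 concentrations; primary antibody 12 h at 10 degrees C.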
# TRPML1 agonist = qHTS for Agonists of the Human Mucolipin Transient Receptor Potential 1 (TRPML1); Mucolipin-1 (Homo sapiens), Q9GZU1; TRPML1-expressing cells, Ca2+ dye fluorescence, FDSS; host cell line not named in the record; reference of the full effect not given here; activation, % (no concentration beside the values); 410,000 compounds, 0.12% hits; in the data active = activation above about 50%; inconclusive = about 30% to 50%; inactive = below about 30%; note: 0% is about no effect; the text of the record puts the active cut at 80%
#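 Tetracycline-induced TRPML1-DL cells are seeded and incubated overnight before loading with a no-wash Ca2+ dye and quencher. Agonist activity is taken from the 110 s fluorescence read following compound pin-transfer on an FDSS, before EC80 54-4 challenge.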
# Sfp PPTase inh = qHTS Assay for Inhibitors of Bacillus subtilis Sfp phosphopantetheinyl transferase (PPTase). 310,000 compounds, 3.5% hits. 4'-phosphopantetheinyl transferase ffp (Bacillus subtilis), Q9F4F7. Biochemical Sfp PPTase activity, qHTS. Potency, µM, without a hit: max response, negative = inhibition, actives largely listed as inhibitors; active = well fitted inhibition curve with a large enough effect; inconclusive = small, poorly fitted or top-dose-only effect, or another doubt; inactive = no such curve, though single readings can be large or run the other way;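 note: the enzyme is Sfp with the accession as filed and its product quenches rhodamine fluorescence; potency is the fitted concentration of half-maximal effect; 0% = enzyme reaction without inhibitor and -100% = no enzyme wells; top concentration of the series not given in the record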
#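 Buffer: 50 mM Hepes-Na pH 7.6, 10 mM MgCl2, 0.01% Nonidet P-40, 0.01% BSA. Enzyme 15 nM, pre-exposed to compound 15 min; substrates then added and fluorescence change tracked over 30 min.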
# ClpP mod = qHTS Assay for Activators of ClpP. 340,000 compounds, 1.9% hits. Potency, µM (series often up to 57.5 µM), for inactives: at the highest dose activity change, negative = active. ATP-dependent Clp protease proteolytic subunit (Bacillus subtilis (strain 168)), P80244. purified B. subtilis ClpP, FRET peptide cleavage, 20 min. AID 651965, 2013; active = well fitted falling curve with a large enough effect; inconclusive = small, poorly fitted or top-dose-only effect; inactive = no such curve, though single readings can be large or run the other way; note: potency is the fitted concentration of half-maximal effect; the source files actives as falling curves though it sought activators and does not explain the sign; nearly all actives have a fitted effect of over 65% in size; many hits overshoot -100%
# Target sequence (P80244 whole entry, looked up): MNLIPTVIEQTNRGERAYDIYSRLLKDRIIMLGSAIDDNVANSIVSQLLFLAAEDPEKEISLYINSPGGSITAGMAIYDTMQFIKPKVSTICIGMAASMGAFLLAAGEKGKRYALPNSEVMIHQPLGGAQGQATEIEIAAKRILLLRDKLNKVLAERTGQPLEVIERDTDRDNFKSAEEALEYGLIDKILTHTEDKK
#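 Buffer: 100 mM Tris/HCl pH8, 100 mM KCl, 0.05% low protease BSA, 2.5% glycerol, 0.01% Tween-20. ClpP 10 microg/mL final; 20 min RT; delta FRET normalized to ADEP and DMSO controls.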
# TRPML1 inh = qHTS for Inhibitors of the Human Mucolipin Transient Receptor Potential 1 (TRPML1) | TRPML1-inducible cells, Ca2+ dye fluorescence, FDSS; stronger effect = lower value; inhibition of EC80 agonist-evoked calcium signal | AID 624415, 2012 | activity change, negative = inhibition, % (concentration not given with the values) | 390,000 compounds, 0.02% hits; in the data active means activity change below about -50%; inconclusive means about -30% to -50%; inactive means above about -30%;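 note: stimulus is agonist 54-4 at its EC80 concentration; % is set by controls: 0 for no effect and ±100 for the full control effect; the text of the record puts the active cut at -80%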
#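 TRPML1-DL cells, Tet-induced overnight (~16 h, 37 °C) at 1,500 cells/well, were loaded with Ca8 no-wash dye plus quencher for 45-90 min at room temperature. Compounds were pinned during FDSS kinetic reading; agonist 54-4 at EC80 (4 uM final) then added.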
# TRPV1 potentiator = HTS Assay for Compounds that Act as Potentiators of the Vanilloid Receptor 1; TRPV1-expressing cells, Fluo-8 calcium influx, capsaicin EC20 potentiation; host cell line not named in the record; control for the full effect not named in the record; potentiation, % at 8.33 µM; 320,000 compounds, 0.02% hits; active means potentiation above 80%; inconclusive means 30% to 80%; inactive means below 30%; note: 0% is about no effect
# Target sequence (Q8NER1 whole entry, looked up): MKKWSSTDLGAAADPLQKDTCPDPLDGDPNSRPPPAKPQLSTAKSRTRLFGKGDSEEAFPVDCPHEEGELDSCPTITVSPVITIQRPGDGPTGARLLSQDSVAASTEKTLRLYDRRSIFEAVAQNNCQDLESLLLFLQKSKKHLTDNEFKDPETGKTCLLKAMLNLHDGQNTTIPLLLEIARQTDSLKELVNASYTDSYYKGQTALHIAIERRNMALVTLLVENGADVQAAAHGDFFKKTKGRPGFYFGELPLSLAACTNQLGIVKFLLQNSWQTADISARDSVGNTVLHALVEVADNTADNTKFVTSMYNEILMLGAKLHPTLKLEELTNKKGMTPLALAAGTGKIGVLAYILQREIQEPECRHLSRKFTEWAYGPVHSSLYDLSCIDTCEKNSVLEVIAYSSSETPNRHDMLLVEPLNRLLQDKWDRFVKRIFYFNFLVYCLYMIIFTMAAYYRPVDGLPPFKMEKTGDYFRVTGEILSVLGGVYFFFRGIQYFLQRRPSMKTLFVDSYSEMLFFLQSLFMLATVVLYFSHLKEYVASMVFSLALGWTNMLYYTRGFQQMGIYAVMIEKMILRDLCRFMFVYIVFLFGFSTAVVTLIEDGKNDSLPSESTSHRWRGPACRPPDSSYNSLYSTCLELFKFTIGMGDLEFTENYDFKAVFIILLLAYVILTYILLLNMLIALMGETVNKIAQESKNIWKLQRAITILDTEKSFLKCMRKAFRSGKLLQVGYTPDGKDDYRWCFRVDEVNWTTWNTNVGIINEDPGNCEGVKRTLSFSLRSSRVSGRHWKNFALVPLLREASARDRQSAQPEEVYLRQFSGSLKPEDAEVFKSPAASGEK
#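 Fluo-8 calcium influx in TRPV1-expressing cells, kinetic read (ex 480/em 520 nm). Compound added and read 3 min for agonist activity, followed by capsaicin at EC20 final and 2 min further read for enhancement.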
# Starred values were filed as active, the others as inactive; ? = inconclusive; · = no result given; & = joins results of further samples; [ ] = dose if it differs, or a comment. Not a hit list, and some 4.4% of all compounds hit somewhere here.
SMILES,Menin MLL FP FL,PINK1 modulator,TRPML1 agonist,Sfp PPTase inh,ClpP mod,TRPML1 inh,TRPV1 potentiator
Cc1ccc(-c2nn(-c3ccccc3)cc2/C=N/NC(=O)c2ccc(Br)o2)cc1,-0.3,2.3%,2.6,14%,-17%,-3,-4
CC(C)N1CCC(N2CCN(Cc3ccc(C#CC(C)(C)O)s3)CC2CCO)CC1 (configuration not stated),0.2,0.6%,0.1,1%,·,-9,3
Cc1c(C(=O)OCCOc2ccccc2)[nH]c2c1C(=O)CC(c1ccc(C(C)(C)C)cc1)C2 (configuration not stated),·,-0.2%,0.8,·,-1.4%,-13,·
CC(=O)c1ccc(-c2ccc(C(=O)NCC(c3ccc(F)cc3)N3CCOCC3)o2)cc1 (configuration not stated),·,0.0%,1.7,·,-1.2%,1,1
COc1ccccc1N(C)S(=O)(=O)c1ccc(C(=O)OCC(=O)Nc2cc(C)on2)cc1,-5.7,-1.9%,0.6,2%,1.4%,20,0
CCCCC(c1nnnn1CCOC)N1CCN(C(=O)c2ccco2)CC1 (configuration not stated),1.4,-0.5%,-0.6,0%,1.3%,2,-13
CC(C)c1cc(C(=O)NCc2cccnc2)no1,3.3,3.2%[38.3 µM],0.3,4%,-0.7%,-10,1
Cc1ccc(Oc2ncccc2CO)cc1,?,-0.1%,2.0,24%,·,-2,6
COCCNC(=O)Cn1c(=O)n(CCC(=O)NCCc2ccccc2)c(=O)c2ccccc21,5.4,8.7%,4.9,-2%,-7.7%,19,-2
CC1(O)CC(=O)N(c2ccccc2)O1 (configuration not stated),1.2,·,-0.4,8%,-1.2%,-15,9
CCC(=O)N(CCCN(C)C)c1nc(-c2cc(OC)ccc2OC)cs1,3.6,-5.2%[38.3 µM],-0.5,-1%,-1.6%,-4,6
COc1cc(C(=O)Nc2nc(-c3cccs3)cs2)cc(OC)c1OC,1.3,·,1.4,-6%,-19%,12,-11
Cc1ccc(C)n1-c1nn(S(=O)(=O)c2ccccc2)c2cccc(F)c12,0.2,3.7%,-0.6,12%,·,24,-4
COc1ccc(N2CC(O)=C(c3nc(-c4ccccc4)cs3)C2=N)cc1,2.5,7.2%,·,5%,-6.7%,·,-5
Cc1ccc(-c2nc(CN3CCCC(C(=O)N4CCOCC4)C3)c(C)o2)cc1 (configuration not stated),-0.8,3.7%,0.0,1%,-6.4%,-19,-12
O=C(O)COc1ccc(Cl)cc1C1CCCCC1,·,-0.4%,1.7,·,-1.3%,3,·
CN1CCN(c2ncnc3c2ncn3[C@H]2CN(Cc3ccc(-c4ccccc4)cc3)C[C@@H](CO)O2)CC1,·,-1.1%,2.0,·,-1.4%,·,·
Cc1sc(NC(=O)CCC(=O)O)c(C(N)=O)c1-c1ccccc1,·,0.9%,-0.6,35µM*,6.7%,12,8
COc1cc2ncnc(NCc3cccc(Cl)c3)c2cc1OC,-1.3,0.7%,0.2,3%,-16%,5,4
Cc1ccc(NC(=O)COC(=O)c2ccc(S(=O)(=O)N3CCCCC3)cc2)cc1,·,1.3%,0.0,·,3.0%,5,-9
Cc1c(CN2CCCC(C(=O)c3cccc(OC(C)C)c3)C2)c(=O)n(-c2ccccc2)n1C (configuration not stated),-2.0,-1.3%,0.7,17%,·,-5,1
[O-][n+]1ccc(OCc2ccccc2)cc1,·,1.0%,-0.1,·,0.8%,40,·
CSc1ccccc1OCc1cc(C(=O)NC2CCc3ccccc32)no1 (configuration not stated),2.0,7.2%,0.2,22%,-3.4%,61,28
Cc1cccc(-n2c(-c3ccncc3)n[nH]c2=S)c1,0.8,0.3%,-0.7,79µM*,-0.9%,-4,-1
O=C(COc1ccc(F)cc1)NC1CC1,-3.0,0.2%,0.1,20%,-0.4%,10,-5
Cc1ccc(C)c(NC(=O)COC(=O)c2ccc3ccccc3n2)c1,·,0.8%,0.7,·,-2.8%,1,18
O=C(Nc1nnc(Cc2ccc(F)cc2)s1)Nc1ccccc1F,-1.2,5.9%,1.0,-13%,-1.0%,-5,2
Nc1c(C(=O)CSc2nc3ccccc3o2)c(=O)[nH]c(=O)n1C1CC1,·,-0.7%,0.4,·,-2.0%,-11,3
Cc1ccc2c(c1)N(CC(=O)N1CCCc3ccccc31)C(=O)C(C)O2 (configuration not stated),0.2,-0.6%,1.1,-2%,1.0%,-24,-13
COC(=O)[C@]12CCCCC=C1N(Cc1ccccc1)C(=O)[C@H](CC(=O)NCC1CCCCC1)C2,·,-0.7%,-1.0,·,-0.3%,·,·
Nc1nonc1-c1noc(N2CCCCC2)n1,-3.3,1.3%,1.3,8%,-1.4%,-1,-2
CCc1cccc(OCCn2nc(C(=O)O)c3ccccc3c2=O)c1,-0.7,-1.5%,-0.3,-4%,·,-19,-2
COc1ccc(-c2nnn(Cc3nn[nH]n3)n2)cc1OC,6.0,1.2%,-0.8,-16%,0.4%,25,0
COC(=O)CCC(=O)NNC(=O)C1CC1(c1ccccc1)c1ccccc1 (configuration not stated),0.4,3.1%,0.3,10%,-1.8%,26,16
COc1cc(C(=O)Nc2ccncc2)cc(OC)c1OC,-1.3,·,0.0,8%,1.2%,-3,-22
CN(C)c1ncnc2c1nnn2C1OC(CO)C(O)C1O (configuration not stated),·,-1.2%,0.1,·,0.8%,-14,·
COc1cccc(NC(=O)C2CCN(C(=O)[C@@H]3Cc4ccccc4CN3)CC2)c1,·,-0.1%,-0.5,5%,-7.8%,-5,2
COCCNC(=O)CN(Cc1ccccc1)S(=O)(=O)c1ccc2nc(C)sc2c1,-8.7,1.4%,-0.8,8%,-1.1%,1,-9
Cc1ccc(S(=O)(=O)N2CCCC(C(=O)Nc3ccc(C(=O)O)cc3)C2)cc1Cl (configuration not stated),-1.4,-1.0%,-0.3,9%,·,11,2
CCN(CC)C(=O)CSc1nc2sc3c(c2c(=O)n1CCOC)CCC3,0.5,2.3%,0.1,3%,·,-13,-8
N/C(Cc1ccc(Cl)c(Cl)c1)=N\OC(=O)c1ccc(Br)o1,-4.2,6.7%,0.8,1%,·,-9,·
CCC12CN3CCN(CC(C3)/C1=N\NC(=O)Nc1ccccc1)C2,-2.5,0.5%,0.2,2%,-3.1%,4,4
CC(=O)c1cccc(S(=O)(=O)Nc2cc(C(F)(F)F)ccc2N2CCOCC2)c1,·,-0.1%,-0.3,·,-2.0%,0,0
Cc1cc(C)cc(NC(=O)C2CCCN2/C=C/C(=O)C(F)(F)F)c1 (configuration not stated),-0.2,-0.9%,-0.1,9%,-4.1%,4,24
CCOC(=O)c1c(CN(C)C)n(-c2ccccc2)c2cc(Br)c(O)cc12,3.7,1.5%,-1.0,-8%,·,39,2
O=C(Nc1c[nH]c(=O)[nH]c1=O)OCc1ccccc1,·,-3.5%,0.5,·,·,-4,·
Cc1cc(C)c(C)c(S(=O)(=O)N2CCN(C(=O)c3ccccn3)CC2)c1C,·,0.9%,-0.5,·,1.0%,-9,-46
c1ccc2c(c1)COC(CNC1CCCCC1)OC2,-7.1,-2.4%,0.8,9%,-4.6%,-10,?

# Structures listed above shown as hits in Sfp PPTase inh:
Structure	Menin MLL FP FL	PINK1 modulator	Sfp PPTase inh	TRPML1 inh
Cc1sc(NC(=O)CCC(=O)O)c(C(N)=O)c1-c1ccccc1	·	0.9%	35µM*	12
Cc1cccc(-n2c(-c3ccncc3)n[nH]c2=S)c1	0.8	0.3%	79µM*	-4

# Continuation:
SMILES,Menin MLL FP FL,PINK1 modulator,TRPML1 agonist,Sfp PPTase inh,ClpP mod,TRPML1 inh,TRPV1 potentiator
CC1CCCCC1NC(=O)CSCC(=O)O (configuration not stated),-5.7,0.0%,0.8,2%,2.2%,41,1
Cc1nc2cc(N3CCCCC3)c(NC(=O)c3ccncc3)cc2c(=O)n1Cc1ccc(Cl)cc1,7.4,·,·,14%,·,·,8
O=C(CCn1nc(-c2ccc(Cl)cc2)ccc1=O)NCc1cccnc1,-1.5,-0.6%[38.3 µM],-0.4,9%,-17%,0,3
CCOC(=O)c1c(C)nc2c(c1-c1cc(OC)ccc1OC)C(=O)c1ccccc1-2,0.3,·,2.1,-20%,2.3%,3,-16
CCN(CC)S(=O)(=O)c1ccc2c(c1)N(CC(=O)NCCc1ccc(S(N)(=O)=O)cc1)C(=O)CO2,-1.2,4.3%,0.9,2%,·,-12,1
CNc1nc(-c2cccnc2)nc2ccccc12,0.4,0.9%,·,?,·,·,·
COc1cc(/C=N/NC(=O)c2nc(-c3ccccc3)n(-c3ccccc3)n2)ccc1O,-0.5,-0.6%,0.9,-3%,-2.3%,30,-10
CC1(OC(=O)CCc2ccccc2)C(=O)C=C2C=C(c3ccc(C#N)cc3)N(C3CCCC3)C=C2C1=O (configuration not stated),-5.9[11.7 µM],4.5%,-0.2,-4%&6%,-5.3%,43,13
CC1(c2nnc(-c3ccc(F)cc3)o2)CC(c2ccccc2)=NO1 (configuration not stated),1.0,0.2%,-0.3,5%,-0.5%,12,17
O=C1NC(=O)C(c2cccs2)(c2cccs2)N1,0.9,0.4%,0.6,1%,·,-8,-9
CCOc1cc(C=O)ccc1OCC(=O)NC(C)(C)C,0.3,-2.1%,-0.7,5%,-5.9%,19,-1
Cc1cc(-c2n[nH]c(=S)n2/N=C/c2c[nH]c3ccccc23)n[nH]1,3.4,-0.1%,1.5,-29%,0.6%,2,·
NS(=O)(=O)c1ccc(NC(=O)CN2C(=O)C3C4C=CC(C4)C3C2=O)cc1 (configuration not stated),2.0,9.3%,0.7,9%,·,7,-7
Fc1ccc2c(c1)C(c1ccc(N3CCOCC3)cc1)=NNC(c1cccs1)=N2,-1.2,-1.6%,-1.3,10%,-0.2%,-9,-10
O=C(COC(=O)c1ccccc1O)NC1CCCc2ccccc21 (configuration not stated),·,8.4%,-2.1,·,4.0%,4,·
